MARV entry inh: qHTS for inhibitors of binding or entry into cells for Marburg Virus; 300,000 tested, 1.8% active; AID 540276, 2011; Potency, µM (series often up to 37.8 µM), for the others: at the top dose activity change, negative = inhibition, most hits filed as inhibitors; Marburg virus pseudotyped entry inhibition, cell reporter; control for the full effect not named in the record; about a third of the inactives were read at about 46 µM; active = well fitted inhibition curve with a large enough effect; inconclusive = small, poorly fitted or top-dose-only effect, or effect the other way; inactive = flat fitted curve, though single readings scatter; tested in HEK293 cells; about a fifth of its hits are not listed in these tables; further: on the % scale 0 is the no-effect control and ±100 the full control effect; luciferase read-out
Cruzain inh noDet: qHTS Assay for Promiscuous and Specific Inhibitors of Cruzain (without detergent) | purified cruzain, Z-FR-AMC fluorescence, no detergent | 200,000 tested, 2.3% active | Potency, µM, for the others: max response, negative = inhibition, usual class: inhibitors | AID 1476, 2009 | Cruzipain (Trypanosoma cruzi), P25779;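 further: plate controls were enzyme without inhibitor for no effect and buffer without enzyme for full effect; nearly all actives have a fitted effect of over 40% in size; top concentration of the series not given in the record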
Target sequence (P25779 123-467 limits assumed): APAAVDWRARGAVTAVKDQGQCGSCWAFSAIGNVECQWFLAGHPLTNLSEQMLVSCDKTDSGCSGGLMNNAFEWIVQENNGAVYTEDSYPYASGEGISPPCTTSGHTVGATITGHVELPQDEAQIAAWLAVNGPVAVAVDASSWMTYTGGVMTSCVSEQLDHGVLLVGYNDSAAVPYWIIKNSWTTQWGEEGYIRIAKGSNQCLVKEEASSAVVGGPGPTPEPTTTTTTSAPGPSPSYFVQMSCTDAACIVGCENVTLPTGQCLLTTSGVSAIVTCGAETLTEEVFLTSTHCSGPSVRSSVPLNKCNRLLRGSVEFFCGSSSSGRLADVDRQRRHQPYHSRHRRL
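Purified cruzain at 1.5 nM, pre-incubated 15 min with compound at room temperature in 100 mM sodium acetate pH 5.5, 5 mM DTT, 0.00005% Triton X-100. Reaction started with 2 uM Z-FR-AMC; AMC fluorescence increase over 60 s gives rate.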
Cruzain Triton: qHTS Assay for Promiscuous and Specific Inhibitors of Cruzain (with detergent); purified cruzain, Z-FR-AMC fluorescence, 0.01% Triton; Potency, µM, for inactives: max response, negative = inhibition, most hits filed as inhibitors; 200,000 tested, 0.43% active;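 further: plate controls were neutral wells for no effect and buffer without enzyme for full effect; nearly all actives have a fitted effect of over 40% in size; top concentration of the series not given in the record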
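15 min RT preincubation of 1.5 nM cruzain with compound, then 2 uM Z-FR-AMC added; kinetic AMC fluorescence, 60 s delta. Triton X-100 0.01%, pH 5.5.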
LASV entry inh: qHTS for Inhibitors of binding or entry into cells for Lassa Virus | Lassa virus pseudotype entry inhibition, cell reporter; control for the full effect not named in the record | Potency, µM (doses to about 37.9 µM), for the others: at the highest dose activity change, negative = inhibition, most hits filed as inhibitors | 300,000 tested, 1.2% active | AID 540256, 2011; active means well fitted inhibition curve with a large enough effect; inconclusive means small, poorly fitted or top-dose-only effect, or effect the other way; inactive means flat fitted curve, though single readings scatter; tested in HEK293 cells; further: on the % scale 0 is the no-effect control and ±100 the full control effect; nearly all actives have a fitted effect of over 50% in size; luciferase read-out
StopGo reporter: High Throughput Screening for Foot and Mouth Disease Virus Antivirals | human cells with a luciferase reporter of 2A StopGo recoding; control for the full effect not named in the record | Potency, µM (top dose mostly 57.9 µM), for the others: at the highest dose signal change, negative = less light | 410,000 tested, 1.2% active; active = well fitted falling curve with a large enough effect; inconclusive = small, poorly fitted or top-dose-only effect; inactive = no such curve, though single readings can be large or run the other way; tested in HEK293T cells; further: on the % scale 0 is the no-effect control and ±100 the full control effect; nearly all actives have a fitted effect of over 45% in size; luciferase light after 4 h
NS1 function inh: qHTS Assay for Inhibitors of Influenza NS1 Protein Function. S. cerevisiae slowed by influenza A NS1, growth recovery by OD600. Potency, µM (highest dose often 46.1 µM), inactives show at the highest dose activity, positive = more growth. 270,000 tested, 0.4% active; active means well fitted rising curve with a large enough effect; inconclusive means small, poorly fitted or top-dose-only effect; inactive means no such curve, though single readings can be large or run the other way; further: nearly all actives have a fitted effect of over 50% in size
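Recovery from NS1-induced slow growth read by OD600 in budding yeast switched to galactose assay medium (pH 6.0, -URA) at 1:100 dilution. Compound 23 nl per well; the matching strain lacking NS1 serves as control.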
RE007 growth inh: qHTS Assay for Inhibitors of the HIV-1 protein Vpr | S. pombe RE007 Vpr strain, BacTiter-Glo ATP luminescence, 24 h; control for the full effect not named in the record | Potency, µM (series often up to 92.2 µM), for the others: at the top dose activity change, negative = less growth | 360,000 tested, 0.21% active | AID 651644, 2012; active = well fitted falling curve with a large enough effect; inconclusive = small, poorly fitted or top-dose-only effect; inactive = no such curve, though single readings can be large or run the other way;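 further: on the % scale 0 is the no-effect control and ±100 the full control effect; nearly all actives have a fitted effect of over 50% in size; the assay follows cell death caused by Vpr and the record does not say whether a fall means rescue or toxicity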
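Fission yeast RE007 carrying one integrated HIV-1 vpr copy, seeded at OD 0.01 in PMG+AL medium with 23 nL pinned compound. Grown 24 h at 30 degrees; viability read by BacTiter-Glo luminescence after 5 min.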
SARS PLP yeast: qHTS of Yeast-based Assay for SARS-CoV PLP. S. cerevisiae expressing SARS-CoV PLpro, growth rescue; control for the full effect not named in the record. Potency, µM (titrated, usually from 32.9 µM), without a hit: at the top dose activity, positive = growth rescue. 330,000 tested, 0.19% active; active means well fitted rising curve with a large enough effect; inconclusive means small, poorly fitted or top-dose-only effect; inactive means no such curve, though single readings can be large or run the other way; further: 0% is about no effect; nearly all actives have a fitted effect of over 55% in size; growth read by luminescence after 48 h
* hit, by the source's call; ? = inconclusive; . = no result given; & = joins results of further samples; [ ] = another dose, or the depositor's remark. Unless noted, the call rests on the fitted dose curve; in most records, active means well fitted curve in the direction sought with a large enough effect; inconclusive means small, poorly fitted or top-dose-only effect, or another doubt; inactive means no such curve, though single readings can be large; an effect the other way counts as inactive or inconclusive. Potency means the concentration at half of the fitted maximal effect.

1. Cc1[nH]nc2c1C(C(C)C)C(C#N)=C(N)O2 (centres undefined)
2. COc1ccc2c(C(=O)CCl)c[nH]c2c1
3. COc1cc2ccccc2cc1C(=O)Nc1ccccc1N1CCCC1
4. CC1=C(C(=O)N(C)C)C(c2cccs2)NC(=O)N1 (centres undefined)
5. CCOc1ccc(CNS(=O)(=O)c2c(C)nc3scc(C)n3c2=O)cc1OC
6. CC(C)(C)NC(=O)c1cccnc1Sc1ccccc1
7. CCN(CC)CCN1C(=O)C(O)=C(C(C)=O)C1c1ccccc1 (centres undefined)
8. COc1ccc(C2(O)CC3CCC(C2)N3c2nc(C)cc(C)c2C#N)cc1 (centres undefined)
Compound	1	2	3	4	5	6	7	8
MARV entry inh	0%	.	?	0%	-1%[46.1 µM]	6%[46.1 µM]	0%	-26%
Cruzain inh noDet	9%	.	.	-4%	.	.	4%	-6%
Cruzain Triton	3.5%	.	.	-1.2%	.	.	0.6%	-15%
LASV entry inh	1%	.	5%	6%	-13%[46.1 µM]	0%[46.1 µM]	.	-17%
StopGo reporter	?	35µM*	-13%	0%	-6%	-2%	.	0%
NS1 function inh	-1%	-64%	.	-6%	-4%	.	1%	-40%
RE007 growth inh	10%	-15%	3%	-10%	3%	10%	.	-15%
SARS PLP yeast	-1%	9%	-5%	12%	1%	1%	3%	-39%

Entries from the list above containing an NH in an aromatic ring, in the order listed:
1. Cc1[nH]nc2c1C(C(C)C)C(C#N)=C(N)O2 (centres undefined)
2. COc1ccc2c(C(=O)CCl)c[nH]c2c1
Compound	1	2
MARV entry inh	0%	.
Cruzain inh noDet	9%	.
Cruzain Triton	3.5%	.
LASV entry inh	1%	.
StopGo reporter	?	35µM*
NS1 function inh	-1%	-64%
RE007 growth inh	10%	-15%
SARS PLP yeast	-1%	9%

(continued)
9. CC(=O)Nc1ccc(/C=C2/Sc3ccccc3C2=O)cc1
10. CCNS(=O)(=O)c1ccc(C)c(-n2cnnn2)c1C
11. Cc1ccc(NC(=O)c2cc(S(=O)(=O)N3CCOCC3)cs2)cc1
12. O=C(CSc1nc(=O)[nH]c2c1CCC2)NCc1ccc(Cl)cc1
13. COCCn1c(C)cc(C(=O)CSc2nnnn2C2CCCC2)c1C
14. CCCn1c(SCC(=O)c2ccc3c(c2)NC(=O)CO3)nc2ccccc21
15. O=C(Nc1ccccc1)N1N=C(c2ccc(F)cc2)CC1c1ccc(F)cc1 (centres undefined)
16. CS(=O)(=O)c1ccc(Cl)c(C(=O)NC2CCSc3ccccc32)c1 (centres undefined)
Compound	9	10	11	12	13	14	15	16
MARV entry inh	-27%[46.1 µM]	-12%[46.1 µM]	-2%[46.1 µM]	.	?	-2%	-12%	16%[46.1 µM]
Cruzain inh noDet	.	-1%	.	0%	.	-10%	-3%	.
Cruzain Triton	.	3.6%	.	0.4%	.	-5.6%	-6.9%	.
LASV entry inh	-21%[46.1 µM]	-4%	-29%[46.1 µM]	0%[46.1 µM]	1.3µM*	-10%	-7%	-15%[46.1 µM]
StopGo reporter	37%[activator]	131%[activator]	?	-22%	13µM*	-20%	-8%	-11%
NS1 function inh	-3%	15%	4%	.	.	5%	11%	-1%
RE007 growth inh	17%	-1%	5%	.	-2%	-2%	-8%	11%
SARS PLP yeast	-2%	-4%	4%	.	2%	-4%	-18%	2%

17. COc1cccc(OCCOCCOc2ccc(C)cc2[N+](=O)[O-])c1
18. COC(=O)C(O)(CC(=O)Nc1ccccc1OC)C(F)(F)F (centres undefined)
19. CN(C)CCN(C(=O)c1cccc(Cl)c1)c1nc2c(Cl)cccc2s1
20. CCc1cc(C(=O)NC2CCCN(Cc3ccccc3F)C2)n(C)n1 (centres undefined)
21. Cc1ccc([N+](=O)[O-])c(OCCCNCC(C)O)c1 (centres undefined)
22. CCCCn1c(N)c(N(Cc2ccccc2OC)C(=O)c2cc(=O)[nH]c3ccccc23)c(=O)[nH]c1=O
23. CCCN(CCC)c1nc(-c2ccccc2F)nc2ccccc12
24. CCN(CC)CCOC(=O)c1ccc(NC(=O)c2cc3c(=O)n(CC)c4ccccc4c3s2)cc1
Compound	17	18	19	20	21	22	23	24
MARV entry inh	7%	1%	?	.	-9%	8%	.	-3%[46.1 µM]
Cruzain inh noDet	6%	3%	2%	.	.	.	1%	5%
Cruzain Triton	-3.3%	0.2%	-3.8%	.	.	.	7.3%	-0.6%
LASV entry inh	1%	1%	10%	.	-2%	5%[46.1 µM]	5%[46.1 µM]	26%[46.1 µM]
StopGo reporter	-18%	-21%	-11%	?	-26%	-19%	?	5%
NS1 function inh	-10%	9%	-5%	-6%	0%	.	.	.
RE007 growth inh	-16%	-14%	-20%	-4%	-6%	18%	.	.
SARS PLP yeast	-16%	16%	-18%	3%	1%	4%	.	.

25. COc1cccc(/C=C/C(=O)OCC(=O)Nc2nnc(-c3ccccc3)o2)c1OC
26. CC1CC(C)CN(C(=O)c2ccc3ccccc3c2)C1 (centres undefined)
27. CC(=O)c1cc2c(cc1N/C(=N/S(=O)(=O)c1ccccc1)c1ccc(Cl)cc1)OCO2
28. CCCCCCSc1cc(C)nc2ncnn12
29. CCc1cc(-c2n[nH]c(C)c2-c2nc3ccccc3n2C)c(O)cc1O
30. CCOC(=O)c1cccc(C(=O)Oc2ccccc2)n1
31. Cc1ccc(NC(=O)Nc2ccnc(-c3cccnc3)n2)cc1
32. CC(C)(C)c1cc(C(=O)NCc2cccnc2)ccn1
Compound	25	26	27	28	29	30	31	32
MARV entry inh	?	-20%	19%&19%	-3%	?	-2%	?	-8%
Cruzain inh noDet	.	.	-3%&-13%	2%	.	-13%	.	-1%
Cruzain Triton	.	.	1.6%&5.7%	1.1%	.	0.1%	.	2.1%
LASV entry inh	9%	-18%[46.1 µM]	?	.	?	7%	?	0%
StopGo reporter	7%	9%	21%&28%	?	?	.	-20%	12%
NS1 function inh	.	.	13%	-73%	6%	-51%	1%	1%
RE007 growth inh	-28%	5%	8%	18%	2%	-1%	-11%	14%
SARS PLP yeast	.	-5%	2%	8%	1%	-10%	0%	3%

33. C/C(CCC12CC3CC(CC(C3)C1)C2)=N\NC(N)=S
34. COc1ccc(NC2CCCN(C(=O)CCc3cccc(Cl)c3)C2)cc1 (centres undefined)
35. COc1ccccc1NC(=S)N1CCC(NC(=O)NC23CC4CC(CC(C4)C2)C3)CC1
36. O=C(Nc1cccc(F)c1)c1ccc(S(=O)(=O)N2CCOCC2)cc1
37. O=C(Cc1cccc2ccccc12)Nc1ccc(N2CCOCC2)cc1
38. O=C(COc1ccc(S(=O)(=O)N2CCCC2)cc1)NCC1CCCO1 (centres undefined)
39. Cc1ccc(NC(=O)c2cc(=O)[nH]c3ccccc23)cc1
40. Cc1ccc(C(=O)N/C(=C\c2cccs2)C(=O)NCCc2c[nH]c3ccccc23)cc1C
Compound	33	34	35	36	37	38	39	40
MARV entry inh	-25%	.	-25%	.	.	-14%[46.1 µM]	.	-22%
Cruzain inh noDet	-9%	.	8%	-6%	.	.	.	-19%
Cruzain Triton	-8.1%	.	-5.7%	0.9%	.	.	.	-0.9%
LASV entry inh	?	.	-23%	.	.	-15%	.	-7%
StopGo reporter	0%	-14%	.	-13%	2%	-21%	-12%	4%
NS1 function inh	-12%	-1%	1%	-7%	7%	3%	5%	?
RE007 growth inh	8%	-16%	10%	-7%	21%	-3%	8%	-26%
SARS PLP yeast	?	2%	-4%	-1%	0%	0%	-1%	2%

41. CC(=O)C1=C(O)C(=O)N(c2cccc(C(=O)O)c2)C1c1ccccc1F (centres undefined)
42. O=C(CSc1n[nH]c(-c2ccccc2Cl)n1)N1CCN(c2ccc(F)cc2)CC1
43. COc1ccc(NC(=O)[C@@H](NC(=O)c2ccccc2F)C(C)C)cc1S(=O)(=O)N1CCOCC1
44. Cc1cccc(OCC(=O)NCC(=O)n2nc(C)cc2C)c1
45. CCC(=O)c1ccc(O)c(OC)c1
46. Cc1ccc(C(=O)NC2CC3CCCC(C2)N3Cc2ccccc2)cc1 (centres undefined)
47. COc1cc2c(cc1OC)-c1nncn1C(C)(C)C2
48. COc1ccc(/C(N)=N/OC(=O)CCCc2ccccc2)cc1OC
49. Cc1ccc(N(C(=O)Cn2nnc(-c3ccc(F)cc3)n2)C(C(=O)NC(C)(C)C)c2ccncc2)cc1 (centres undefined)
50. Cc1noc(C)c1CSCC(=O)Nc1nnc(CC(C)C)s1
Compound	41	42	43	44	45	46	47	48	49	50
MARV entry inh	?	.	12%	4%&4%	.	-16%	14%	?	?	0%[46.1 µM]
Cruzain inh noDet	-5%	20%	.	1%	.	.	-1%	7%	.	.
Cruzain Triton	-5.8%	-2.6%	.	-7.2%	.	.	0.3%	-0.9%	.	.
LASV entry inh	14%	24%[46.1 µM]	4%	4%	.	-2%	?	-19%	?	?
StopGo reporter	18%	0%	7%	10%	-11%	-16%	13%	17%	-2%	-10%
NS1 function inh	0%	.	.	-7%	-3%	7%	6%	0%	7%	18%
RE007 growth inh	0%	.	2%	2%	-6%	4%	-8%	.	6%	-7%
SARS PLP yeast	7%	.	1%	9%	1%	1%	-4%	-13%	0%	1%

Some entries already given, limited to StopGo reporter.
| nr | compound | StopGo reporter |
| --- | --- | --- |
| 18 | COC(=O)C(O)(CC(=O)Nc1ccccc1OC)C(F)(F)F (centres undefined) | -21% |
| 19 | CN(C)CCN(C(=O)c1cccc(Cl)c1)c1nc2c(Cl)cccc2s1 | -11% |
| 20 | CCc1cc(C(=O)NC2CCCN(Cc3ccccc3F)C2)n(C)n1 (centres undefined) | ? |

Screens (PubChem)
